Compound activity (PubChem)
hNpr1 antagonist: blocks ANP-stimulated signaling of human Npr1 receptor; P16066; HEK293 hNpr1 GloSensor cGMP, ANP-stimulated luminescence; Potency, µM (series often up to 46.3 µM), inactives show at the top dose activity change, negative = inhibition, most hits filed as inhibitors; actives 1.6% (n = 76,000); active = well fitted inhibition curve with a large enough effect; inconclusive = small, poorly fitted or top-dose-only effect; inactive = no such curve, though single readings can be large or run the other way;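 further: nearly all actives have a fitted effect of over 60% in size; nearly all hits also lower the signal before the agonist is added; a reference antagonist and vehicle were the controls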
Target sequence (P16066 whole entry, looked up): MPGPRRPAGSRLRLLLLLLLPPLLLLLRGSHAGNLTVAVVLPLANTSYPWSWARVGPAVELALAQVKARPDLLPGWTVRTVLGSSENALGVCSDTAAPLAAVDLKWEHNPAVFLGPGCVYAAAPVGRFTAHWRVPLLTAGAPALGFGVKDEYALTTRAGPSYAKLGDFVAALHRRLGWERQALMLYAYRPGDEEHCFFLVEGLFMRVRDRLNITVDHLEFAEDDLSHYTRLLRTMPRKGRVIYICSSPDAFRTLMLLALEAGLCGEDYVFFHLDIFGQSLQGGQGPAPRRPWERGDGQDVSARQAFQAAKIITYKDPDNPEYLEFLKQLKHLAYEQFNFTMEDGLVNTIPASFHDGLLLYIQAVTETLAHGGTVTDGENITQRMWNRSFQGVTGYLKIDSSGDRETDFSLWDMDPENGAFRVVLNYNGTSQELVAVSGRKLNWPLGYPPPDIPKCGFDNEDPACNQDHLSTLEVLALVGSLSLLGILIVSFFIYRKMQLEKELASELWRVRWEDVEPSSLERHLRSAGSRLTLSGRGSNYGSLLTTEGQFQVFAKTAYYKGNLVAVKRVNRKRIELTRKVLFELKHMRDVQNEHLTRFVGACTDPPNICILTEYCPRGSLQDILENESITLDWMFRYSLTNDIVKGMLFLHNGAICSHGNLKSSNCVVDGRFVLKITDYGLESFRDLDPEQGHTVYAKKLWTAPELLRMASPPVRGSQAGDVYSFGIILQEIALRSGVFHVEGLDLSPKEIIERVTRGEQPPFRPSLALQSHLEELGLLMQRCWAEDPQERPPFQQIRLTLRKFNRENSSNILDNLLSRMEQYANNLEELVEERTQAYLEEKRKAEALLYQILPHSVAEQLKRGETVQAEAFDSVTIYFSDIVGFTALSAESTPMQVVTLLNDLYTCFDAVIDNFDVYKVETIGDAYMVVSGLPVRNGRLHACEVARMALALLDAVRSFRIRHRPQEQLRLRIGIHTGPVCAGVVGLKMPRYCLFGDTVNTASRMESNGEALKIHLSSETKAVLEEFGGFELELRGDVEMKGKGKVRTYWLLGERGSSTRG
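HEK293 cells stably expressing human Npr1 and cGMP GloSensor pGS-40F, loaded 2 h with 2% GloSensor reagent, given compound 30 min at room temperature. Luminescence read before and 20 min after 0.1 nM hNppA.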
Active calls of the source: *; ? = inconclusive; [ ] = another dose, or the depositor's remark. On the % scale 0 is the no-effect control and ±100 the full control effect; potency means the concentration at half of the fitted maximal effect.

The first two records, to show the layout:
SMILES	hNpr1 antagonist
O=[S+]1([O-])NCC2(CCN(CC3CCNCC3)C2)Nc2ccccc21 (stereo unspecified)	6.6%
Cc1nn2c(c1-c1ccnn1C(C)C)N(C(=O)C(C)C)CCC2	4.9%[70.6 µM]

The list itself, from the start:
SMILES	hNpr1 antagonist
O=[S+]1([O-])NCC2(CCN(CC3CCNCC3)C2)Nc2ccccc21 (stereo unspecified)	6.6%
Cc1nn2c(c1-c1ccnn1C(C)C)N(C(=O)C(C)C)CCC2	4.9%[70.6 µM]
CC(C)c1noc([C@@H]2CCCN2C(=O)Cn2nnnc2CN(C)C(C)C)n1	7.3%
O=C(O)CCNC(=O)N1CCCC(c2cccc(C(=O)O)c2)C1 (stereo unspecified)	4.5%
O=C(Nc1ccccc1)N1CC(Oc2ccc(-c3noc(-c4ccncc4)n3)cc2)C1	11.2µM*
COc1ccc(C(=O)N[C@@H]2CN(c3ccncn3)C[C@H]2CN(C)C)cc1F	12.8%
CCc1ccc(NC(=O)NCCc2noc(C)n2)cc1	-4.6%
Cc1cccc(NC(=O)N2CCCC(Cc3noc(C4CC4)n3)C2)c1 (stereo unspecified)	-1.1%
O=C(COc1ccc(F)cc1)NCCc1noc(-c2ccncc2)n1	0.4%
O=C(Cc1ccccc1)NCC1CN(Cc2cccc(Cl)c2)CC12CN(c1ccccc1)C2 (stereo unspecified)	-2.9%
CN(C)c1cccc(Oc2nnnn2[C@H]2CO[C@H]3[C@@H]2OC[C@@H]3NC(=O)NC2CCCCC2)c1	-19.0%
O=C(CC1CCOCC1)NCc1ccc(OC(F)(F)F)cc1	0.0%
Cc1ccc(NC(=O)Cn2nc3n(c2=O)CCCC3)c(C)c1	3.7%
O=C(c1ccc(Cl)nc1)N1CCCC(c2nn(-c3ccc(F)cc3)c(=O)[nH]2)C1 (stereo unspecified)	11.2%
Cc1ncsc1CN1CCC2(CC1)NCCc1c2[nH]c2ccccc12	3.2%
O=C1N(CCC2CCOC2)c2ccccc2NC12CCNCC2 (stereo unspecified)	2.4%
O=C(Nc1ccc2ncnc(N3CCCCC3)c2c1)c1cc(F)ccc1F	-17.2%
CC[C@H]1CN(C(=O)Nc2cccc(C(F)(F)F)c2)CC[C@H]1CC(=O)NCc1ccc(OC)cc1	?
O=C(NCC1Cn2cccc2C(=O)N1Cc1ccccc1)C1CCOCC1 (stereo unspecified)	7.0%
CC(C)CCNC(=O)Cn1ccn2nc(-c3ccccc3)c(CO)c2c1=O	2.8%
Cc1noc2c(-c3ccc(N4CCOCC4)cc3)cc(-c3ccccc3)nc12	2.7%[70.6 µM]
O=C(Nc1cccc(C(F)(F)F)c1)c1nc2c(o1)CCN(Cc1ccc(F)cc1)CC2	-30.3%[70.6 µM]
Cc1ncsc1CN1C(=O)CO[C@H](c2ccc(NC(=O)c3cccnc3)cc2)[C@H]1CO	6.1%
COc1ccc(-c2cc(N3CCC(NC(=O)c4cccc(OC(F)(F)F)c4)C3)n[nH]2)cc1 (stereo unspecified)	-9.6%
CC(C)N1CCN(C(=O)c2ccc3c(c2)C(O)CCCCCN3C)CC1 (stereo unspecified)	-6.1%
C=CCNC(=O)C[C@@H]1CCN(C(=O)c2ccnc(Cl)c2)C[C@@H]1CC	-5.6%[70.6 µM]
CC1(C(=O)NCC2CC2)CCCc2cnc(NCc3ccccc3)nc21 (stereo unspecified)	-24.2%[70.6 µM]
CCO[C@H]1CN(C(=O)c2cnn(-c3ccccc3OC)c2)C[C@@H]1O	-0.6%
O=C(NCc1cccnc1)[C@@H]1C[C@@H](O)CN1C1CCN(C(=O)Cc2ccccc2)CC1	-17.0%
Cc1ccc(C(=O)N2CCC3(CC2)NC(=O)N(c2ccc(F)cc2)N3)s1	0.0%
Cc1ccc(NC(=O)N2CCCC(Cn3c(C4CC4)nc4cccnc43)C2)cc1F (stereo unspecified)	-16.3%
CN1CCN(S(=O)(=O)c2ccc(F)cc2)CC12CCNC(=O)CC2 (stereo unspecified)	5.1%
O=C1CN(C(=O)CCC(=O)N2CCCC(c3nc(C4CCOCC4)no3)C2)c2ccccc2N1 (stereo unspecified)	0.7%
COc1ccc(C2CCC(=O)N2Cc2ccc3c(c2)OCO3)cc1 (stereo unspecified)	-4.2%
COCC(=O)N1CC[C@H]2CC(=O)N(CCc3cccc(OC)c3OC)CC[C@H]2C1	2.5%[70.6 µM]
Cc1noc(C)c1S(=O)(=O)N1CCCCC1c1nc(CCOCC2CCCC2)no1 (stereo unspecified)	-8.9%
Cc1cccc(C(=O)N2CCC(n3cc(-c4nc(C)no4)nn3)CC2)c1	3.3%
Cc1noc(C)c1-c1cc(-c2ccc(N3CCOCC3)nc2)cn2cncc12	-16.8%[70.6 µM]
Cc1nnc2n1CCC(NC(=O)Cc1cccs1)CC2 (stereo unspecified)	0.0%
CN(C)C[C@@H]1CN(c2ncccn2)C[C@H]1NC(=O)c1ccc2[nH]ccc2c1	0.9%
O=C(c1ccc2c(c1)OCO2)N1CCN2C(=O)N(Cc3cccnc3)C[C@H]2C1	-1.2%[70.6 µM]
CC(C)CN1C(=O)c2cccn2CC1C(=O)NCc1cc(F)ccc1F (stereo unspecified)	0.7%
COCCNC(=O)c1ccc(OC2CCN(Cc3cccc4nonc34)CC2)c(Cl)c1	-1.5%
c1cc(-c2cc(-c3cn[nH]c3)cn3cncc23)ccn1	1.5%[70.6 µM]
CN(CCc1ccccn1)[C@@H]1[C@H](O)[C@H](CO)O[C@@H]1CNC(=O)Nc1ccc(F)cc1F	1.0%
CN1CCCCCC(O)c2cc(C(=O)NCc3cccc(C(F)(F)F)c3)ccc21 (stereo unspecified)	-29.2%
O=C(Nc1cccc(C(F)(F)F)c1)c1cc(-c2ccc[nH]2)n[nH]1	-23.6%
CN(CC1CCOC1)C(=O)c1ccc(F)cc1F (stereo unspecified)	0.8%
COc1ccc(-c2cc(N3CCCC(NC(=O)c4ccccc4)C3)n[nH]2)cc1 (stereo unspecified)	-16.0%
C=CCNC(=O)N[C@H]1C[C@@H](C(=O)N[C@@H](CCS(C)(=O)=O)C(N)=O)N(C(=O)CSC)C1	7.2%
COc1ccc(CN2CCNC(=O)C2CC(=O)NC(C)(C)CO)cc1OC (stereo unspecified)	4.4%
O=C(c1cccc(F)c1)N1CCN(c2cc(-c3ccc(Cl)cc3)[nH]n2)CC1	?
COc1ccc(-c2cc3c(=O)n(CCNC(=O)c4ccc5c(c4)OCO5)ccn3n2)cc1	-2.3%
O=C(NCC1CC1)c1cccc(OC2CN(C3CCCCC3)C2)c1	-8.8%
COCCN1CCCCCC(O)c2cc(C(=O)NCCCc3ccccc3)ccc21 (stereo unspecified)	-16.6%
Cc1nc2c(c(-c3ccc(O)cc3)n1)CN(Cc1ccc(OC(F)(F)F)cc1)CCC2	?
COc1ccc2[nH]c3c(c2c1)CCN(C)C31CCN(C(=O)c2ccsc2)CC1	7.4%
Cc1cc(OCCN2CCOCC2)c(C)c2c1CC[C@@H]([C@H](C)C(=O)NC(C)(C)C)C2	2.9%[70.6 µM]
O=C(NCc1ccco1)C1CC(=O)N(c2n[nH]c3cccc(F)c23)C1 (stereo unspecified)	2.0%
COc1ccc(-c2nc(-c3ccccc3)nc3c2CN(C(=O)N(C)C)CC3)cc1	14.9%

Retrieved by compound from the list above:
SMILES	hNpr1 antagonist
c1cc(-c2cc(-c3cn[nH]c3)cn3cncc23)ccn1	1.5%[70.6 µM]
CN(C)c1cccc(Oc2nnnn2[C@H]2CO[C@H]3[C@@H]2OC[C@@H]3NC(=O)NC2CCCCC2)c1	-19.0%
CC(C)CN1C(=O)c2cccn2CC1C(=O)NCc1cc(F)ccc1F (stereo unspecified)	0.7%
O=C(c1ccc2c(c1)OCO2)N1CCN2C(=O)N(Cc3cccnc3)C[C@H]2C1	-1.2%[70.6 µM]

Structures shown so far that have a thiophene ring, fused or not:
SMILES	hNpr1 antagonist
Cc1ccc(C(=O)N2CCC3(CC2)NC(=O)N(c2ccc(F)cc2)N3)s1	0.0%
Cc1nnc2n1CCC(NC(=O)Cc1cccs1)CC2 (stereo unspecified)	0.0%
COc1ccc2[nH]c3c(c2c1)CCN(C)C31CCN(C(=O)c2ccsc2)CC1	7.4%

Later entries
SMILES	hNpr1 antagonist
COc1cccc(CN2CCC3(CC2)CN[S+](=O)([O-])c2ccccc2N3)c1	-1.6%
CN(C)CCNC(=O)c1nc2nc(-c3ccccc3)c(-c3ccncc3)cc2n1C	2.4%[70.6 µM]
CCOC(=O)c1cccc(NC(=O)c2cnc(-c3ccc(C)cc3)nc2-c2ccncc2)c1	-15.0%
CNC(=O)[C@@H]1C[C@H](Oc2ccccc2)CN1C(=O)c1cc(C)n(C)n1	-5.1%
COc1ccccc1OCCNC(=O)CN1CC2CC(C1)[C@H]1CCCC(=O)N1C2 (stereo partly specified)	-0.4%
O=C(NC1CC(c2nnc(CO)n2C2CC2)C1)c1ccc2c(c1)CCO2 (stereo unspecified)	0.0%
Cn1ccnc1-c1nccn1CC(CO)Cc1ccsc1 (stereo unspecified)	3.0%
CCN(CC)C(=O)[C@@H]1CCC[C@@H](NCc2cccc(Cl)c2)CN(C)C(=O)C1	-1.3%[70.6 µM]
Cc1ncoc1C(=O)NC1CCc2nn(CC3CC3)c(=O)n2CC1 (stereo unspecified)	3.0%
COc1ccc(CCN2CC(C(=O)N3CCN(C)CC3)CCC2=O)cc1 (stereo unspecified)	2.9%
CN(Cc1cccn1C)C1CCOc2ccccc21 (stereo unspecified)	0.0%[70.6 µM]
COCCN(CCOC)CC[C@@H]1CC[C@H](O)[C@@H](C(=O)NC2CCCCC2)O1	-2.0%[70.6 µM]
CCn1cc(CN2CCc3nc(N4CCN(C)CC4)[nH]c(=O)c3CC2)c2ccccc21	-0.7%
CCOc1cc(=O)n2c(c1C(=O)NC1CCCC1)CCCCC2	-0.6%
O=C(C1CC1)N1CCN2C(=O)N(C3CCCCC3)C[C@H]2C1	6.2%[70.6 µM]
CCn1ccc(C(=O)NCC2Cn3cccc3C(=O)N2Cc2ccccc2)n1 (stereo unspecified)	-7.6%
CC(C)NC(=O)C[C@@H]1c2nc(NC(=O)c3ccc(F)cc3)sc2C[C@@H]2[C@](C)(CO)[C@H](O)CC[C@]21C	2.4%
O=C(c1ccc(F)cc1)N1C[C@H]2OC(=O)N(CCCN3CCOCC3)[C@H]2C1	-6.7%
COc1cccc(CNC(=O)[C@@H]2C[C@@H](O)CN2C2CCN(C(=O)c3cccs3)CC2)c1	0.0%
CC1=C[C@@H](CNC(=O)c2ccncc2)[C@H](C(C)C)C[C@H]1CC(=O)N1CCN(C)CC1	-2.8%[70.6 µM]
O=C(Nc1ccc2ncnc(N3CCCCC3)c2c1)c1ccc(F)c(F)c1	-28.2%
O=C(Nc1ccccc1)c1nc2c(o1)CCN(CC1CC1)CC2	-26.3%[70.6 µM]
COc1ccc(-c2nc(C(=O)N3CCN(c4ncccn4)CC3)n3ccccc23)cc1	-17.3%
CNC(=O)c1cc(-c2cccnc2)cc2c1OCCN2Cc1cccnc1	8.0%[70.6 µM]
O=C(c1cccc2[nH]ccc12)N1CCC(n2cc(-c3nc(-c4ccccc4)no3)nn2)CC1	?
Cn1cc(CN2C[C@@H]3C[C@H](C2)c2ccc(NC(=O)COc4ccccc4)c(=O)n2C3)c2ccccc21	-16.4%
COCCc1noc(C2Cc3ccccc3N2C(=O)Nc2ccc(C)cc2C)n1 (stereo unspecified)	3.6%
C=CCn1cc2c3c(cccc31)[C@H](CC(C)C)N[C@H](C(=O)NCc1ccc(OC)cc1)C2	-18.2%[70.6 µM]
Cc1noc(-c2ccccc2Cl)c1C(=O)N1CCC(Cc2ccccc2)CC1	-17.3%
COCCC(=O)N1CCCC(N2CCN(c3cccc(C(F)(F)F)c3)CC2)C1 (stereo unspecified)	-0.6%
CCc1cc(=O)n(CC(=O)Nc2ccccc2)c(-c2cccc(F)c2)n1	-0.2%
O=C1NC2(CCN(S(=O)(=O)c3cccc(C(F)(F)F)c3)C2)N=C1c1ccccn1 (stereo unspecified)	0.0%
O=C(NCCn1ccn2nc(-c3ccc(F)cc3)cc2c1=O)c1n[nH]c2c1CCCC2	?
O=C(c1nc(-c2cccc(C(F)(F)F)c2)c2cnccn12)N1CCOCC1	20.2%
O=c1c2nc(-c3ccccc3F)ccc2ncn1Cc1ccccn1	2.7%[70.6 µM]
CN1CCC(N2CCCC(NC(=O)c3cnc4ccccc4c3)C2)CC1 (stereo unspecified)	4.4%
CCNC(=O)N1CCCC1c1nc(C2CCOCC2)no1 (stereo unspecified)	-2.8%
Cc1nc(CC(=O)N2CCCC(c3ccc(C(=O)O)cc3)C2)cs1 (stereo unspecified)	4.2%
O=C(NCc1ccccn1)C1c2ccccc2C(=O)N(Cc2ccccc2)C12CCCC2 (stereo unspecified)	?
O=S(=O)(NC[C@H]1OC[C@@H](NCc2cccnc2)[C@@H]1O)c1ccccc1	7.3%[70.6 µM]
C=CCC(=O)N1CCCC1C(=O)Nc1ccccc1-c1ccc(OC)cc1 (stereo unspecified)	3.7%
O=C(c1ccc2c(c1)OCO2)N1CCC(Cc2nc(-c3ccc(F)cc3)no2)CC1	2.51µM*
Cc1nc2cccnc2n1CC1CCCN(S(=O)(=O)c2ccc(C(C)C)cc2)C1 (stereo unspecified)	?
CCc1noc(-c2cccn3c(CNC(=O)c4ccc(F)c(F)c4)nnc23)n1	2.6%
COc1ccc(CN2CC3(CCN(C(=O)Nc4ccc(C)c(C)c4)CC3)C2=O)cc1	-17.6%
O=C(CCNc1c(-c2cccc(F)c2)nc2cnccn12)NCC1CCCO1 (stereo unspecified)	1.1%
CC(C)CN(CC1CN(C(=O)Nc2cccc(Cl)c2)CCO1)C(=O)c1ccccc1 (stereo unspecified)	-14.3%
CC(Oc1cccc(Cl)c1)C(=O)NCc1nnc2ccc(-c3ccccc3)nn12 (stereo unspecified)	4.1%
O=S(=O)(c1ccccc1Cl)N1CC(c2nc(Cc3ccccc3)no2)C1	-28.3%

Not all compounds are listed; rates above refer to the full screens.
